Source: PubChem
Cruzain Triton: inhibitors of Trypanosoma cruzi cruzain with detergent; P25779; purified cruzain, Z-FR-AMC fluorescence, 0.01% Triton; Potency, µM, without a hit: max response, negative = inhibition, actives largely listed as inhibitors; 200,000 compounds, 0.43% hits; AID 1478;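 note: plate controls were neutral wells for no effect and buffer without enzyme for full effect; nearly all actives have a fitted effect of over 40% in size; top concentration of the series not given in the record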
Target sequence (P25779 123-467 limits assumed): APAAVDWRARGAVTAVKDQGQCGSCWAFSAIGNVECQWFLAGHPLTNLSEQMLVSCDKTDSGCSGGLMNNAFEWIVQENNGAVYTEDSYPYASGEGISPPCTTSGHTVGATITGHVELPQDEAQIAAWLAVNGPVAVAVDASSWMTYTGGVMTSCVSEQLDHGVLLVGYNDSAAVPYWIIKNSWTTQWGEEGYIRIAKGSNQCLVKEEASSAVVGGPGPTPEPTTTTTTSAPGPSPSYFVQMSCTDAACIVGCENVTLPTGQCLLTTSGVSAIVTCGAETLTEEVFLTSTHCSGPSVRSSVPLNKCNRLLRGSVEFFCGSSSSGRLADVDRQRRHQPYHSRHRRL
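Enzyme 1.5 nM, Z-FR-AMC 2 uM, NaOAc 100 mM pH 5.5, DTT 5 mM, Triton X-100 0.01%; 15 min RT compound preincubation; kinetic ex360/em450, 60 s delta.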
StopGo reporter: lowers the luciferase signal of an FMDV 2A StopGo reporter | human cells with a luciferase reporter of 2A StopGo recoding; control for the full effect not named in the record | Potency, µM (series often up to 57.9 µM), inactives show top-dose signal change, negative = less light | 410,000 compounds, 1.2% hits; active = well fitted falling curve with a large enough effect; inconclusive = small, poorly fitted or top-dose-only effect; inactive = no such curve, though single readings can be large or run the other way; tested in HEK293T cells; note: % is set by controls: 0 for no effect and ±100 for the full control effect; nearly all actives have a fitted effect of over 45% in size; luciferase light after 4 h
MARV entry inh: blocks Marburg virus binding to or entry into cells | AID 540276 | Marburg virus pseudotyped entry inhibition, cell reporter; control for the full effect not named in the record; about a third of the inactives were read at about 46 µM | 300,000 compounds, 1.8% hits | Potency, µM (doses to about 37.8 µM), for inactives: at the highest dose activity change, negative = inhibition, actives largely listed as inhibitors; active = well fitted inhibition curve with a large enough effect; inconclusive = small, poorly fitted or top-dose-only effect, or effect the other way; inactive = flat fitted curve, though single readings scatter; tested in HEK293 cells; about a fifth of its hits are not listed in these tables; note: % is set by controls: 0 for no effect and ±100 for the full control effect; luciferase read-out
LASV entry inh: inhibitors of Lassa virus binding or cell entry | AID 540256 | Lassa virus pseudotype entry inhibition, cell reporter; control for the full effect not named in the record | Potency, µM (highest dose often 37.9 µM), for inactives: at the highest dose activity change, negative = inhibition, hits mostly inhibitors | 300,000 compounds, 1.2% hits; active means well fitted inhibition curve with a large enough effect; inconclusive means small, poorly fitted or top-dose-only effect, or effect the other way; inactive means flat fitted curve, though single readings scatter; tested in HEK293 cells; note: % is set by controls: 0 for no effect and ±100 for the full control effect; nearly all actives have a fitted effect of over 50% in size; luciferase read-out
RE007 growth inh: less growth of the S. pombe RE007 Vpr strain; S. pombe RE007 Vpr strain, BacTiter-Glo ATP luminescence, 24 h; control for the full effect not named in the record; Potency, µM (top dose mostly 92.2 µM), for the others: at the top dose activity change, negative = less growth; 360,000 compounds, 0.21% hits; AID 651644; active = well fitted falling curve with a large enough effect; inconclusive = small, poorly fitted or top-dose-only effect; inactive = no such curve, though single readings can be large or run the other way;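 note: % is set by controls: 0 for no effect and ±100 for the full control effect; nearly all actives have a fitted effect of over 50% in size; the assay follows cell death caused by Vpr and the record does not say whether a fall means rescue or toxicity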
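Fission yeast strain RE007, carrying one chromosomally integrated HIV-1 vpr copy, was seeded at OD 0.01 in PMG+AL medium with 23 nL pinned compound. After 24 h at 30 °C and 99% humidity, viability was read by BacTiter-Glo luminescence.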
SARS PLP yeast: blocks SARS-CoV papain-like protease in a yeast assay. S. cerevisiae expressing SARS-CoV PLpro, growth rescue; control for the full effect not named in the record. Potency, µM (highest dose often 32.9 µM), for inactives: at the top dose activity, positive = growth rescue. 330,000 compounds, 0.19% hits. AID 485353; active means well fitted rising curve with a large enough effect; inconclusive means small, poorly fitted or top-dose-only effect; inactive means no such curve, though single readings can be large or run the other way; note: 0% is about no effect; nearly all actives have a fitted effect of over 55% in size; growth read by luminescence after 48 h
NS1 inh: blocks influenza NS1 protein function; S. cerevisiae slowed by influenza A NS1, growth recovery by OD600; Potency, µM (series often up to 46.1 µM), without a hit: at the highest dose activity, positive = more growth; 270,000 compounds, 0.4% hits; AID 2326; active means well fitted rising curve with a large enough effect; inconclusive means small, poorly fitted or top-dose-only effect; inactive means no such curve, though single readings can be large or run the other way; note: nearly all actives have a fitted effect of over 50% in size
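In this qHTS, NS1 from influenza A is expressed in budding yeast, where it slows growth. Cells are switched from glucose to 2% galactose medium (pH 6.0, -URA), treated with compound, and growth recovery is read at OD600.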
Cruzain noTriton: inhibitors of Trypanosoma cruzi cruzain without detergent; purified cruzain, Z-FR-AMC fluorescence, no detergent; Potency, µM, without a hit: max response, negative = inhibition, actives largely listed as inhibitors; 200,000 compounds, 2.3% hits; AID 1476;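 note: plate controls were enzyme without inhibitor for no effect and buffer without enzyme for full effect; nearly all actives have a fitted effect of over 40% in size; top concentration of the series not given in the record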
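Detergent-free condition (0.00005% Triton X-100) in acetate buffer pH 5.5 with DTT. 1.5 nM enzyme and compound were pre-mixed 15 min, then 2 uM Z-FR-AMC substrate added; reaction progress from fluorescence change between first and third reads (60 s).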
The depositor's hits bear a star; ? = inconclusive; . = no result given; & = joins results of further samples; [ ] = remark or other dose. Unless noted, calls come from the whole dose curve; as a rule, active = well fitted curve in the direction sought with a large enough effect; inconclusive = small, poorly fitted or top-dose-only effect, or another doubt; inactive = no such curve, though single readings can be large; an effect the other way counts as inactive or inconclusive. Potency is the fitted concentration of half-maximal effect.

SMILES	Cruzain Triton	StopGo reporter	MARV entry inh	LASV entry inh	RE007 growth inh	SARS PLP yeast	NS1 inh	Cruzain noTriton
CC(=O)Nc1ccc(NC(=O)C2(c3cccs3)CCOCC2)cc1	7.0%	-6%	.	?	.	.	.	9%
Cc1ccc(Cl)cc1N1CCN(CCNC(=O)Nc2ccccc2Cl)CC1	-0.4%	0%	6%[46.1 µM]	-10%[46.1 µM]	.	.	.	5%
Oc1ccc(C=Nc2ccc(N3CCOCC3)cc2)c(O)c1	0.5%	16%	?	?	1%	3%	-4%	-6%
CCOC(=O)Cn1nnnc1C(C(C)C)N(Cc1cc2c(C)cc(C)cc2[nH]c1=O)C1CCCC1 (stereo not given)	-15%	?	8.9µM*	?	-8%	6%	-4%	19%
C=CCn1cc(C(=O)OC)c(=O)c2cc(S(=O)(=O)N3CCC(C)CC3)ccc21	-2.6%	19%	-17%	-3%	-11%	-20%	-70%	0%
CC1CCCC(NC(=O)COC(=O)c2cc3ccccc3oc2=O)C1C (stereo not given)	.	54%[activator]	?	16%	-17%	-4%	.	.
Cc1cccc(C(=O)N2CCC(N3CCN(Cc4ccc(F)cc4)C(=O)C3=O)CC2)c1	1.7%	-6%	.	0%[46.1 µM]	.	.	.	-9%
Cc1noc(C)c1CSCC(=O)OCC(=O)NC1CCCCC1	4.1%	-22%	-7%	9%	-3%	5%	-10%	15%
Cc1cccc(NC(=O)NC2COc3ccccc3C2)c1C (stereo not given)	5.6%	-20%	.	-26%[46.1 µM]	.	.	.	0%
CCc1ccc(NC(=O)Cn2c3[n+](c4c(F)c(F)ccc42)CCCCC3)cc1	.	-12%	-4%[46.1 µM]	9%[46.1 µM]	-5%	1%	.	.
CC1CCCCC1NC(=S)NC(=O)c1sc2ccccc2c1Cl (stereo not given)	.	7%	-7%	6%	-21%	-1%	0%	.
CCOC(=O)C1CCN(C(=O)c2cc(S(=O)(=O)N3CCc4ccccc43)ccc2OC)CC1	.	15%	-10%	?	-9%	-6%	.	.
Cn1[nH]c(CSc2ccc(Cl)cc2)cc1=O	.	50%	-1%[46.1 µM]	2%	14%	29%	.	.
CC(C)(C)NS(=O)(=O)c1ccc(CCC(=O)O)cc1	5.7%	-4%	12%	-1%	-8%	-1%	-2%	3%
Cc1ccc(NC(=O)CSc2nc3ccc(NC(=O)COc4ccc(C)cc4)cc3s2)cc1	-2.5%	-27%	3%[46.1 µM]	-1%[46.1 µM]	.	.	.	?
CN(C)C(=O)c1cn(-c2ccccc2)nc1-c1cc2ccccc2oc1=O	.	-19%	-1%[46.1 µM]	16%[46.1 µM]	6%	2%	-6%	.
O=C(CSc1ccccn1)Nc1ccc(Cl)cn1	.	13%	30%	12%	-13%	-1%	0%	.
COc1ccc(NC(=O)CCCc2ccc(OC)c(C)c2)cc1	.	-11%	7%	?	5%	-1%	-17%	.
O=C(NCCOC(=O)c1ccc(C(=O)OCCNC(=O)c2cccnc2)s1)c1cccnc1	3.8%	0%	-5%	0%	9%	1%	12%	5%
COc1cccc(Cn2c(=O)n(Cc3ccco3)c(=O)c3oc4ccccc4c32)c1	-2.4%	-30%	.	2%[46.1 µM]	.	.	.	-1%
CCc1nnc(NC(=O)CSc2nnc(C)c(=O)n2N)s1	.	-6%	.	.	10%	-1%	-5%	.
O=C(CSc1nc2c(c(=O)[nH]1)CCC2)Nc1cc(C(F)(F)F)ccc1Cl	-4.6%	-28%	-1%[46.1 µM]	-22%[46.1 µM]	.	.	.	-5%
Cc1ccnc(NS(=O)(=O)c2ccc(N3C(=O)Nc4ccccc4N3O)cc2)c1	.	12%	3%	8%	5%	-1%	4%	.
COc1ccc(NC(=O)CSCC(=O)Nc2sccc2C#N)cc1	.	16%	19%	14%[46.1 µM]	-8%	-1%	.	.
Cc1ccccc1CN1CCNC(=O)C1CC(=O)NC1CCCCCCC1 (stereo not given)	.	31%[activator]	-10%[46.1 µM]	16%[46.1 µM]	-13%	-6%	7%	.
Cc1c(Cl)cccc1-n1c(SCC(=O)NCc2cccs2)nnc1-c1ccncc1	5.2%	-6%	1%	?	13%	6%	-8%	-1%
Cc1oc(C(=O)O)cc1CSCc1cc(C(=O)O)c(C)o1	3.6%	3%	16%	28%	-10%	8%	?	-3%
Cc1c(-c2ccn[nH]2)cc(NC(=O)c2ccc(Cl)cc2)c(=O)n1N	.	1%	12%[46.1 µM]	-14%	-2%	1%	.	.
CN1CCN(/N=C/c2ccc(-c3ccc([N+](=O)[O-])cc3Cl)o2)CC1	.	11%	?	18%	-1%	-2%	-45%	.
CCc1ccc(-n2c(SCc3ccccc3F)nc3[nH]ncc3c2=O)cc1	-11%	?	.	?	.	.	.	-8%
CN(CC(=O)NCc1ccc(F)cc1)CC(=O)Nc1ccc(Cl)c(C(F)(F)F)c1	.	-13%	.	.	4%	0%	-29%	.
COc1cc(NC(=O)c2c(C)oc3ncnc(N4CCCCC4)c23)cc(OC)c1	-1.1%	-9%	.	?	.	.	.	14%
C/C(=N\NC(=O)C(O)c1ccccc1)c1ccc(C)s1 (stereo not given)	.	74%[activator]	10%	7%	-1%	.	.	.
CN(C)c1nc(N2CCOCC2)nc(N(c2ccccc2)c2ccccc2)n1	-1.3%	-9%	-9%&-9%	-4%	6%	0%	-35%	?
O=C(N/N=C/c1ccoc1)c1cc(Br)ccc1O	.	32%[activator]	.	.	-18%	11%	-24%	.
Cc1cccc(NC(=O)Nc2ccccc2)n1	.	28%	?	4%[46.1 µM]	1%	0%	-2%	.
CC(=O)Oc1ccc2c(=O)oc(-c3ccccc3)nc2c1	.	24%	23%[46.1 µM]	0%[46.1 µM]	-24%	1%	2%	.
COCCn1c(SCC(=O)NCc2ccco2)nc2cccnc21	1.4%	-14%	-5%	-6%	-16%	1%	-7%	1%
COc1cc(Cl)c(C)cc1NC(=O)c1sc2nc3n(c(=O)c2c1C)CCCCC3	-2.0%	-3%	.	0%[46.1 µM]	.	.	.	-5%
CN(C)c1ccc(NC(=O)C(=O)NCCOc2ccccc2)cc1	.	8%	12%[46.1 µM]	.	-20%	3%	.	.
CCCCOc1ccc(C(O)C(CN2CCOCC2)c2ccccc2)cc1 (stereo not given)	.	-11%	.	.	-15%	0%	-5%	.
COC(=O)CC1=NN(c2ccccc2)C(=O)/C1=C\c1ccc(OC)cc1	-3.3%	?	-21%	13%	1%	16%	?	29%
Cc1ccc(C(=O)Nc2nc3ccc(S(C)(=O)=O)cc3s2)cc1C	.	-12%	?	?	25%	-2%	10%	.
O=C1C2C3C=CC(C4CC34)C2C(=O)N1c1cccc2ccccc12 (stereo not given)	.	27%	.	.	-7%	-3%	-25%	.
CCCn1nnnc1SCC(=O)Nc1ccc(F)cc1	-5.8%	28%	5%	0%	2%	5%	2%	4%
O=C1CCCc2[nH]c(-c3ccccc3)nc21	.	20%	21%[46.1 µM]	0%[46.1 µM]	-14%	-1%	0%	.
Cc1ccc(OCC(=O)Nc2cc(S(=O)(=O)N3CCOCC3)ccc2Cl)c([N+](=O)[O-])n1	.	-13%	-20%[46.1 µM]	13%	-2%	-1%	?	.
COc1cc(OC)c(S(=O)(=O)NC(C)C)cc1S(=O)(=O)NC(C)C	.	25%	-17%[46.1 µM]	-16%[46.1 µM]	6%	1%	.	.
Cc1cccc(NC(=O)c2cc3ccccc3o2)c1	-5.3%	-1%	?	?	-30%	-53%	-35%	-16%
Cc1noc(C)c1COc1ccccc1C(=O)N1CCN(S(=O)(=O)c2cccc(Cl)c2)CC1	.	-24%	-30%	-3%	-1%	1%	.	.
CCOC(=O)c1ccccc1NC(=O)CSc1nc(N)cc(N)n1	-3.0%	-19%	-9%	1%	-4%	-21%	17%	-11%
CCN(CC(=O)Nc1ccc2c(c1)OCCO2)C(=O)/C=C/c1ccc(OC)c(OC)c1	.	-9%	0%	-5%	-1%	3%	.	.
O=C(CSc1ncnc2ccccc12)Nc1ccc2c(c1)OCCO2	.	-17%	-23%[46.1 µM]	11%	-9%	1%	.	.
O=C(NC1CCN(Cc2ccccc2)CC1)c1ccc2c(c1)OCCCO2	.	-7%	.	.	-5%	-1%	-1%	.
O=C(NC1CC(=O)N(c2cccc(F)c2)C1)C(=O)c1c[nH]c2ccccc12 (stereo not given)	.	2%	?	-14%	1%	2%	.	.
Nc1ccccc1C(=O)NC12CC3CC(CC(C3)C1)C2	.	87%[activator]	.	.	-17%	1%	6%	.
CCn1c(COc2ccc(Cl)cc2)nnc1SC1CCc2ccccc2C1=O (stereo not given)	-5.4%	-22%	?	6%	-14%	-5%	5%	-4%
CC(C)CCn1c(CN2CC(C)OC(C)C2)nc2c1c(=O)n(C)c(=O)n2C (stereo not given)	.	0%	.	.	-3%	-1%	3%	.
O=C(NNC(=O)C1CCN(S(=O)(=O)c2ccc(Cl)cc2)CC1)c1ccncc1	.	-11%	-7%[46.1 µM]	-21%	-5%	-1%	-2%	.
O=c1c2ccccc2nc(-c2ccco2)n1/N=C/c1ccccc1O	-6.0%	-2%	13%	-9%	4%	12%	7%	-6%
The listing continues.
SMILES	Cruzain Triton	StopGo reporter	MARV entry inh	LASV entry inh	RE007 growth inh	SARS PLP yeast	NS1 inh	Cruzain noTriton
C=COC(=O)c1sc2nc(C)cc(C)c2c1N	.	38%[activator]	7%&7%	2%	-11%	-1%	-9%	.
Cc1cc(C)cc(OC(=O)CS(=O)c2ccc(C(F)(F)F)cc2[N+](=O)[O-])c1 (stereo not given)	-5.9%	?	?	-18%	-28%	-28%	-87%	0%
COc1cc(CNCc2ccc(OC)cc2OC)cc(OC)c1	.	-19%	.	.	-16%	9%	4%	.
Cc1ccc(C(=O)N/C(=C\c2ccccc2)C(=O)NCCN2CCOCC2)cc1	.	12%	2%[46.1 µM]	-1%	-23%	-5%	9%	.
COc1ccc(C2CC(c3ccccc3)Nc3ncnn32)cc1 (stereo not given)	1.2%	-14%	32%	-28%	9%	5%	2%	4%
COc1ccc(NC(=O)N2CCN(c3ccc([N+](=O)[O-])cc3)CC2)cc1OC	.	-28%	?	?	-16%	1%	.	.
